Sa ugtP lethal: growth inhibition of ugtP-null S. aureus, primary screen, RN4220 ugtP deletion, OD600. AID 1259309, 2017. growth inhibition, % (no concentration beside the values). 330,000 compounds, 0.54% hits. 16 h; some inactives read as strong as hits;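 active = z-score under -3 and OD600 up to 0.15 on both plates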;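 also: plate controls were untreated wells for no effect and antibiotic for full effect; wells of about 80 µL received 100 nL stock; the first replicate is given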
BJeLR lethal: MLPCN primary cell-based screen for lethality selective to Ras in HRASV12 cells. BJeLR (HRASV12) viability, CellTiter-Glo ATP luminescence, 48 h; reference of the scale not given here. inhibition, % (test concentration not listed). 300,000 compounds, 0.17% hits. AID 1554, 2009;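 active = replicate mean above 50%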;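 also: 50 nL library stock added to about 25 µL; numbers are from one replicate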
Mtb hypoxia inh: PubChem AID 1159583. 300,000 compounds, 0.1% hits. M. tuberculosis hypoxia-regulated fluorescent reporter, fluorescence. fluorescence inhibition, % (test concentration not listed);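 active = 35 to 45% if threefold the growth effect, above 45% if 1.5-fold the growth effect; inactive = the rest, general growth blockers included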;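 also: wells of about 50 µL received 100 nL stock; 0% = vehicle wells and 100% = reference inhibitor wells; whole bacteria with a GFP reporter of the hypoxia response; strong numbers were not always called active; many hits fall short of the cut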
PrP 5UTR inh: inhibition of PrP 5' UTR reporter expression; cell-based PrP 5' UTR mRNA reporter, plate reader; inhibition, % (concentration not given with the values); 340,000 compounds, 0.35% hits; AID 488862, 2010;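 active = every replicate at 50% or more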;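 also: 0 = median of the neutral control wells; tested in H4 reporter cells; numbers are from one replicate; inactives centre near -14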
Autofluor counter: flagged as autofluorescent in microsphere protease counterscreen; compound autofluorescence counterscreen, microsphere flow cytometry; stronger effect = higher value; fluorescence intensity (concentration not given with the values); 360,000 compounds, 3.1% hits; AID 624483;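 active = at least 3 SD above the mean of all compounds, about 16000 in these data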;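 also: 100 nL of 1 mM stock went into each well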
Sa RN4220 lethal: growth inhibition of S. aureus RN4220, primary screen, OD600. inhibition, % (no concentration beside the values). AID 1259311, 2017. 16 h. 330,000 compounds, 0.33% hits;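 active = z-score of -3 or lower and OD600 up to 0.18 on both plates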;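 also: plate controls were untreated cells for no effect and reference antibiotic for full effect; stock transfer was 100 nL into about 80 µL; one replicate is shown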
Mtb hypoxia inh growth: recorded beside Mtb hypoxia inh, whose call it bears; growth inhibition, %; measured here: M. tuberculosis growth (absorbance);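 0% = vehicle and 100% = reference antibiotic; read after six days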
Active calls of the source: *; . = no result given.

SMILES | Sa ugtP lethal | BJeLR lethal | Mtb hypoxia inh | Mtb hypoxia inh growth | PrP 5UTR inh | Autofluor counter | Sa RN4220 lethal
CCCN1CCN(C(=O)c2c(Cl)cnn2C)CC1 | 5.5 | 1.6 | 0.9 | -5.6 | -30.1 | 6136 | 0.9
Cc1ccccc1C(=O)N1CCC(C(=O)NN2C(=O)NC3(CCCCC3)C2=O)CC1 | 7.4 | . | -0.1 | -0.7 | . | 4206 | 6.3
COc1ccc(OC)c(NC(=O)CS(=O)(=O)Cc2ccccc2)c1 | 13.6 | -6.0 | 8.1 | -1.1 | -15.6 | 6305 | 1.2
COCCN1C2=C(C(=O)CC(C)(C)C2)C(c2ccc(O)c(OC)c2)C2=C1CC(C)(C)CC2=O | 7.2 | 5.8 | 4.5 | 4.0 | -1.7 | 3820 | 5.0
O=C(CN1C(=O)NC(CCc2ccccc2)C1=O)Nc1cccc(Br)c1 (centres undefined) | -13.8 | . | 2.9 | -1.2 | -10.4 | 3525 | 4.5
CCOc1ccccc1NC(=O)c1cccc2ccccc12 | 7.7 | 0.6 | 7.7 | -3.5 | -18.7 | . | 1.9
CS(=O)(=O)N1CCN(C(=O)C2c3ccccc3Oc3ccccc32)CC1 | -4.7 | 13.8 | -5.1 | -0.6 | -17.4 | 10225 | 1.5
COc1ccc(CCN(C)C(=O)CCc2nnc(-c3ccccc3)o2)cc1OC | -2.5 | -1.5 | -7.6 | 9.2 | -95.6 | 2610 | -2.0
CC1=C(C(=O)OC(C)C)C(c2ccccn2)n2ncnc2N1 (centres undefined) | -1.6 | 3.0 | 4.6 | 1.9 | -23.5 | 5729 | -12.9
S=c1[nH]nc(-c2ccncc2)n1N=Cc1ccccc1Cl | 1.6 | . | 5.4 | 0.2 | . | . | 10.1
CCOC(=O)CNC(=O)CSc1ccc2nnc(-c3cccnc3)n2n1 | . | 6.9 | . | . | -27.9 | 3171 | .
Cc1ccc2nc(-c3ccc4c(c3)NC(=O)CO4)cn2c1 | -5.5 | -0.9 | 2.7 | 1.6 | -93.1 | 4508 | 8.6
CCOc1cccc(CNc2ccc(O)cc2)c1OCc1ccccc1Cl | 39.9 | -6.5 | 7.8 | 3.3 | -5.8 | 3306 | -13.5
CCOC(=O)c1ccc(NC(=S)N2CCN(S(C)(=O)=O)CC2)cc1 | 8.4 | 0.1 | 3.3 | 1.1 | -20.5 | 16800* | 3.9
Cc1ccc(NC(=O)CN2CCN(S(=O)(=O)c3ccc(F)cc3)CC2)cc1C | -1.8 | . | 3.8 | -0.8 | -13.7 | 2898 | 3.3
Cc1ccc(S(=O)(=O)Cn2nnnc2C(c2ccccc2)N2CCN(c3ncccn3)CC2)cc1 (centres undefined) | -2.3 | -9.2 | -2.2 | -4.4 | -17.9 | 4596 | -0.5
CCCC(=O)NC(Nc1ccccc1OC)C(Cl)(Cl)Cl (centres undefined) | -17.5 | 8.1 | 20.5 | 5.1 | 21.2 | 11078 | 4.9
Cc1ccc(NC(=O)CN2C(=O)S/C(=C/c3ccc(-c4cccc(C(=O)O)c4)o3)C2=O)cc1 | 10.8 | . | 1.2 | 4.4 | -6.8 | 2532 | 13.8
CC1CN(C2=CC(=O)CCC2)CC(C)O1 (centres undefined) | 1.3 | 3.4 | 10.8 | 16.2 | -12.7 | 4647 | -0.7
Cc1sc2nc3n(c(=O)c2c1C)CCCS3 | 12.5 | 5.9 | . | . | -12.2 | 5518 | 11.4
CCN1CCN(c2ccc(N=Cc3ccccc3O)cc2)CC1 | 1.2 | -2.8 | -4.6 | 0.0 | -6.4 | 4228 | 5.9
CCN(C(=O)/C=C/c1ccc(OC)cc1)C1CCCCC1 | 10.8 | -5.1 | 11.3 | 7.5 | -37.4 | 3637 | 8.7
Cc1ccc(S(=O)(=O)N2CCC(C(=O)N[C@H](C(=O)NC3CCS(=O)(=O)C3)C(C)C)CC2)cc1 (some centres undefined) | 16.5 | 2.0 | 3.4 | 4.7 | -10.1 | 2586 | 17.0
COc1ccc(S(=O)(=O)N(C)CC(=O)N2CCC(C(N)=O)CC2)cc1Cl | 2.5 | 3.1 | 3.1 | 7.3 | -5.8 | 21013* | 1.6
CC(C)(CO)NCC(=O)Nc1cc(C(F)(F)F)cc(NC(=O)CNC(C)(C)CO)c1Cl | 2.1 | 9.4 | 10.6 | -0.7 | 8.1 | 2936 | 2.6
Continued:
SMILES | Sa ugtP lethal | BJeLR lethal | Mtb hypoxia inh | Mtb hypoxia inh growth | PrP 5UTR inh | Autofluor counter | Sa RN4220 lethal
C/C(=N\NC(=O)c1ccccc1C)c1ccc(NC(=O)c2cccs2)cc1 | . | 0.7 | . | . | -30.3 | 2492 | .
Cc1ccc(C(=O)Nc2ccc(N3CCN(C)CC3)cc2)cc1 | . | -2.8 | . | . | -25.2 | 3819 | .
CCN(CC)S(=O)(=O)c1ccc(Cl)c(C(=O)OCC(=O)c2c(N)n(C)c(=O)n(C)c2=O)c1 | -5.7 | 0.7 | 15.9 | 7.8 | -6.7 | 4503 | 4.8
Cn1ncc(Cl)c(Oc2ccccc2)c1=O | 6.8 | 0.2 | 9.7 | 3.1 | -20.9 | 7843 | 5.3
O=C(CCN1CCc2ccccc2C1)Nc1ccc2c(c1)OCO2 | 11.5 | -2.9 | 11.5 | 8.2 | -13.0 | 6643 | 5.0
CCc1ccc(C=NNC(=O)c2ccc(Br)o2)s1 | -10.2 | . | 5.4 | 2.9 | . | . | 1.5
Cc1ccc(CC(=O)OC(C)C(=O)NC2CCCCC2C)cc1C (centres undefined) | -7.0 | . | -1.2 | 6.1 | 2.2 | 3699 | 3.8
CNS(=O)(=O)c1ccc2nc(NC(=O)/C=C/c3ccco3)sc2c1 | . | 1.6 | . | . | -55.7 | 3675 | .
COc1ccc(NC(=O)CCCn2c(=O)c3sccc3n(Cc3ccc(C)cc3)c2=O)cc1 | 3.8 | 0.0 | 3.4 | 1.5 | -20.8 | 7340 | 3.4
Cc1cc(-c2n[nH]c(=S)n2CC(C)C)cs1 | -9.6 | -4.6 | -0.1 | 13.1 | -2.7 | 2053 | -1.8
CN(C)S(=O)(=O)c1cc(NC(=O)CSc2cccc[n+]2[O-])ccc1Cl | 6.9 | . | -1.2 | -0.3 | -20.2 | . | 6.8
CCc1ccnc(NS(=O)(=O)c2ccc3c(c2)OCCO3)c1 | 2.5 | -7.4 | -7.7 | 1.6 | . | 6030 | 2.1
CCc1noc(C)c1C(=O)N1CCC(CCC(=O)Nc2cccc(C)c2)CC1 | 14.1 | -7.1 | -2.2 | -4.1 | -16.2 | 3008 | 4.9
O=C(Nc1ccc2[nH]c(=S)sc2c1)Nc1ccccc1F | -9.5 | 12.6 | 1.5 | 11.6 | -59.1 | 3507 | -3.5
COc1cccc(C(=O)NNC(=O)CCN2CCN(c3ccccc3)CC2)c1 | 0.7 | . | 5.0 | 5.2 | 1.5 | 4043 | 0.9
CCNc1nc(Oc2c(Cl)cccc2Cl)cc(C(F)(F)F)n1 | -23.1 | -3.8 | -8.4 | 3.4 | -28.8 | 9347 | -3.2
CCCCCC(=O)NC(=S)NNC(=O)c1ccc([N+](=O)[O-])cc1 | 2.0 | 1.7 | -2.9 | 7.4 | -13.4 | 2125 | 28.2
CCCCC(=O)NC(c1ccc(OC)c(OC)c1)c1ccc2cccnc2c1O (centres undefined) | 3.1 | . | 14.6 | -4.0 | 24.2 | 4096 | 9.0
CCOC(=O)C1=C(C)NC(=O)NC1c1ccsc1 (centres undefined) | -5.3 | 7.7 | 8.5 | 2.8 | -18.4 | 3266 | -14.6
O=C(C(Cl)Cl)N1CCN(Cc2ccccc2)CC1 | 5.8 | -16.3 | 2.0 | 2.3 | -4.2 | 2684 | 4.5
CN1CCN(CCC(=O)Nc2cccc(F)c2)CC1 | -0.9 | 9.8 | 10.3 | 11.7 | -23.9 | 7855 | 2.6
CCCC(C)C(=O)Nc1ccc(F)c(Cl)c1 (centres undefined) | -0.6 | -2.6 | 25.1 | 20.3 | -21.0 | 4726 | 1.8
CCN(CC)C(=O)c1sc(NC(=O)c2c(OC)cccc2OC)c(C#N)c1C | -7.3 | -3.9 | 7.3 | 1.2 | 6.6 | 2079 | 6.4
CCc1nnc(NC(=O)CSc2nnc(-c3ccco3)n2CC)s1 | -3.1 | -5.6 | -12.0 | 1.2 | -8.2 | 22759* | 1.2
Nc1nc(=S)[nH]c2c1C1(CCCCC1)Cc1ccccc1-2 | 5.1 | -7.7 | 1.7 | 1.6 | -6.4 | 2096 | 0.6
Further compounds follow.
SMILES | Sa ugtP lethal | BJeLR lethal | Mtb hypoxia inh | Mtb hypoxia inh growth | PrP 5UTR inh | Autofluor counter | Sa RN4220 lethal
C=C(C)CNC(=S)N/N=C1\CCCCc2ccccc21 | . | -2.9 | . | . | -5.3 | 2533 | .
CC(C)C(=O)N1C2CCC1CC(O)(c1ccc(F)cc1)C2 (centres undefined) | 4.1 | -12.2 | 17.5 | 7.3 | -20.4 | 4025 | 7.2
O=C(COC(=O)c1ccc(S(=O)(=O)N2CCOCC2)cc1)NCc1ccccc1 | 5.6 | . | 0.5 | 4.8 | -15.7 | 5682 | 4.7
CC1(C)Cc2nc(NCCN3CCOCC3)c(C#N)cc2CO1 | 1.7 | -5.7 | 6.2 | 6.5 | -18.2 | 9585 | 1.1
CC(=O)c1ccc(NC(=O)c2sc3nc(N4CCOCC4)c4c(c3c2N)CCCC4)cc1 | -16.4 | -2.4 | 0.5 | -11.0 | -6.1 | 4211 | 11.7
COc1cccc(-n2cnc3scc(-c4cccs4)c3c2=O)c1 | -8.2 | 2.0 | . | . | 3.9 | 2709 | 0.9
O=C(CSc1nnc(-c2ccco2)n1Cc1ccco1)N1CCOCC1 | -0.9 | 1.2 | 4.0 | 15.7 | -4.1 | 10410 | 3.0
COc1cccc(CNC(=O)c2cccnc2Sc2ccc(C)cc2C)c1 | 8.3 | 5.0 | 10.2 | -3.1 | 1.9 | 4642 | 5.3
CCCS(=O)(=O)N1CCC(C(=O)NC2CCCCC2C)CC1 (centres undefined) | -2.8 | -13.8 | 17.7 | 8.0 | -20.6 | 2921 | -7.9
COc1cc(C(=O)CCN2CCC(c3ccccc3)C2)cc(OC)c1OC (centres undefined) | . | 17.1 | . | . | -7.6 | 7427 | .
CC(C)Cc1nnc(NC(=O)CSc2nc(N)cc(=O)[nH]2)s1 | -0.9 | 5.3 | 0.8 | 2.8 | -1.2 | 8572 | 1.4
CCn1c(SCC(=O)N2CCN(c3ccccc3F)CC2)nnc1-c1ccoc1C | 3.0 | 1.8 | . | . | -7.1 | 4167 | 1.9
Cc1cccc(-c2cc3nc(C)cc(NCCCn4ccnc4)n3n2)c1 | -6.5 | 3.6 | 13.4 | 13.1 | -9.9 | 4603 | 5.9
CCOC(=O)c1cnc(-c2ccccc2)nc1Oc1ccc(OC)cc1 | 3.1 | -11.4 | 10.7 | 2.9 | -0.1 | 4175 | 1.2
Cc1ccc2nc(N3C(=O)C(O)=C(C(=O)c4ccc(C)o4)C3c3cccc(O)c3)sc2c1 (centres undefined) | 7.9 | -0.1 | -7.0 | 1.1 | -21.7 | 4633 | -1.0
O=C(Cc1cccc(C(F)(F)F)c1)NCc1cccnc1 | 2.4 | -3.1 | 11.1 | -1.9 | -16.6 | 5464 | 3.4
CC(CC(=O)NC12CC3CC(CC(C3)C1)C2)=NNC(=O)c1cnccn1 | 4.8 | . | 1.7 | 3.9 | . | . | 2.9
COc1ccccc1NC(=O)CSc1nnc(CCNC(=O)c2ccc(C)cc2)n1C | -11.6 | . | -19.0 | -7.2 | -23.1 | 4141 | -1.2
COc1ccc(Nc2nnc(SCC(=O)NC3CCS(=O)(=O)C3)s2)cc1 (centres undefined) | 3.2 | . | -3.3 | -3.4 | -6.3 | 5836 | 0.3

Sorted by SMILES length (rising): 5 of the compounds above.
SMILES | Sa ugtP lethal | BJeLR lethal | Mtb hypoxia inh | Mtb hypoxia inh growth | PrP 5UTR inh | Autofluor counter | Sa RN4220 lethal
O=C(Cc1cccc(C(F)(F)F)c1)NCc1cccnc1 | 2.4 | -3.1 | 11.1 | -1.9 | -16.6 | 5464 | 3.4
CCOC(=O)c1cnc(-c2ccccc2)nc1Oc1ccc(OC)cc1 | 3.1 | -11.4 | 10.7 | 2.9 | -0.1 | 4175 | 1.2
CC(C)Cc1nnc(NC(=O)CSc2nc(N)cc(=O)[nH]2)s1 | -0.9 | 5.3 | 0.8 | 2.8 | -1.2 | 8572 | 1.4
CCn1c(SCC(=O)N2CCN(c3ccccc3F)CC2)nnc1-c1ccoc1C | 3.0 | 1.8 | . | . | -7.1 | 4167 | 1.9
O=C(COC(=O)c1ccc(S(=O)(=O)N2CCOCC2)cc1)NCc1ccccc1 | 5.6 | . | 0.5 | 4.8 | -15.7 | 5682 | 4.7

Screens: PubChem, several laboratories
